NPYLR7 agonist: agonists of mosquito NPYLR7 receptor, primary screen, cell-based, Aedes aegypti, calcium fluorescence, mosquito biting behavior; activation, % at 10 µM; 270,000 tested, 0.15% active; Aedes aegypti neuropeptide Y-like receptor 7 (NPYLR7); HEK293T NPYLR7/Galpha15, GCaMP6s calcium fluorescence; in the data active = activation above about 40%;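 note: 0% = vehicle and 100% = reference agonist at the receptor; some compounds past the cut are filed as inactive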
NPYLR7 agonist max-min: recorded beside NPYLR7 agonist, whose call it bears; activation, %; measured here: Max-Min RFU normalised activation; some inactives read as strong as hits;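 span of the calcium signal over five minutes; 0% = vehicle and 100% = native peptide agonist; compound fluorescence can raise it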
Starred values were filed as active, the others as inactive; & = joins results of further samples. Some of the compounds tested; count on the stated rates, not on these rows.

Preview:
SMILES | NPYLR7 agonist | NPYLR7 agonist max-min
CN(Cc1ccon1)c1ccc(C(=O)N2CCC(CCn3cccn3)CC2)cn1 | 0 | -4
CC(CCn1cccn1)n1ccnc1-c1ccc2occc2c1 (stereo not drawn) | 3 | 1
CCc1nnc(NC(=O)c2cc(C)c(CC)s2)s1 | -2 | 1

Results, repeating the preview:
SMILES | NPYLR7 agonist | NPYLR7 agonist max-min
CN(Cc1ccon1)c1ccc(C(=O)N2CCC(CCn3cccn3)CC2)cn1 | 0 | -4
CC(CCn1cccn1)n1ccnc1-c1ccc2occc2c1 (stereo not drawn) | 3 | 1
CCc1nnc(NC(=O)c2cc(C)c(CC)s2)s1 | -2 | 1
COc1cc(OC)cc(N2CCC(NC(=O)c3ccoc3)C2)c1 (stereo not drawn) | -3 | -4
CC(C)CNC(=O)[C@@]1(OCc2ccc(C#N)cc2)CC(OCc2cccc(OC(F)(F)F)c2)[C@H](O)[C@H](O)C1 (stereo partly drawn) | -1 | 8
CC(C)c1nc(N2CCC(O)(C(=O)O)CC2)no1 | 7 | 6
Cc1ccccc1C1SCC(=O)N1CCN(C)C(=O)NC(C)(C)C (stereo not drawn) | 19 | 15
Cc1c(C(=O)NCc2ccc(C)n2C)oc2c1C(=O)CC(C)(C)C2 | 9 | 3
Cc1cc(NCCCn2ccnc2)n2nc(C)c(-c3ccc(Cl)cc3)c2n1 | -6 | -8
COc1ccc(Cl)cc1CS(=O)(=O)CC(=O)N(C)Cc1ccccc1F | -4 | -5
CC1CN(Cc2ccco2)c2nc3c(c(=O)n(C)c(=O)n3C)n2C1 (stereo not drawn) | 13 | 10
Cc1c(Cl)cnc(NC(=O)COC(=O)Cc2ccccc2F)c1Cl | -1 | -2
Cc1cc(=O)[nH]c(-n2nc(C3CC3)cc2NC(=O)c2cc3ccccc3o2)n1 | 4 | 6
CC1=NN(c2ccccc2)C(N=P(OC(C)C)(OC(C)C)OC(C)C)C1[N+](=O)[O-] (stereo not drawn) | 8 | 11
Cc1cccc(C)c1NCC(=O)N1CCC2(CC1)OCC(C)O2 (stereo not drawn) | 4 | 2
CCOC(=O)C1(CCCc2ccccc2)CCN(C(=O)CCc2cnccn2)CC1 | -4 | 5
Cc1ccc(OCCCn2c(CO)nc3ccccc32)cc1C | 6 | 8
CN(Cc1cscn1)C(CCO)c1ccccc1 (stereo not drawn) | -1 | -3
O=C(CN1CN(c2ccccc2)C2(CCN(C(=O)Nc3ccccc3F)CC2)C1=O)NCc1ccccc1 | 6 | 15
CCOc1c(CC)cnc2c1c(=O)n(CC(=O)Nc1ccccc1C)c(=O)n2C | -3 | -5
CCn1c(SCc2ccccc2OC)nnc1-c1cc(-c2ccccc2)nc2ccccc12 | 0 | 8
CN(C)CCCn1ccnc1-c1cnc(N)nc1 | 0 | -7
CCOc1ccc(C2NC(=O)N(C)C3=C2C(=O)N(Cc2ccco2)C3)cc1 (stereo not drawn) | 11 | 18
Cc1ccc(/C=C2/SC(c3ccc(C)cc3)=NC2=O)cc1 | 8 | 7
CCN(CC)c1ncccc1CNCc1cn[nH]c1C1CCCCC1 | 19 | 11
O=C1OC2(C(=O)c3ccccc3C2=O)C(=C(O)c2ccc(F)cc2)C1=O | 7 | 3
CCCCCN(C(=O)CCC(=O)O)c1c(N)n(CCCC)c(=O)[nH]c1=O | 6 | 12
Cc1ccc(OCC(=O)N=Nc2c(O)n(C)c3ccccc23)c(C)c1 | 0 | 6
CCOc1ncccc1C(=O)NCC(=O)Nc1ccccc1CC | 10 | 4
CC(C)c1[nH]n(-c2ccc(Cl)c(Cl)c2)c(=O)c1C1=C([n+]2ccccc2)C(=O)N(c2ccc(F)cc2)C1=O | -3 | 5

6 entries out of the list, ordered by formula weight, low to high.
SMILES | NPYLR7 agonist | NPYLR7 agonist max-min
CN(C)CCCn1ccnc1-c1cnc(N)nc1 | 0 | -7
CC(C)c1nc(N2CCC(O)(C(=O)O)CC2)no1 | 7 | 6
CC(CCn1cccn1)n1ccnc1-c1ccc2occc2c1 (stereo not drawn) | 3 | 1
Cc1ccc(OCCCn2c(CO)nc3ccccc32)cc1C | 6 | 8
Cc1c(Cl)cnc(NC(=O)COC(=O)Cc2ccccc2F)c1Cl | -1 | -2
CCn1c(SCc2ccccc2OC)nnc1-c1cc(-c2ccccc2)nc2ccccc12 | 0 | 8

(list continues)
SMILES | NPYLR7 agonist | NPYLR7 agonist max-min
COc1cc2c(cc1OC)[C@@H]1C(=O)c3ccc4c(c3O[C@@H]1CO2)C=CC(C)(C)O4 | 3 | -8
CCc1noc(C)c1C(=O)N1CCN(S(=O)(=O)c2cc(C)ccc2C)CC1 | 8 | 5
CC1=C(C(=O)OCc2ccccc2)C(c2ccc(-c3ccccc3[N+](=O)[O-])o2)C(C(=O)OCc2ccccc2)=C(C)N1 | -11 | -15
CCOc1ccc(-n2c(C(CC)N(CCc3ccccc3)C(=O)c3ccc(Br)cc3)nc3ccccc3c2=O)cc1 (stereo not drawn) | -4 | -2
O=C(Nc1ccc(-c2cscn2)cc1)C1CCCN(Cc2ccc(F)c(F)c2)C1 (stereo not drawn) | 13 | 3
CCOC(=O)c1c(CSc2ccccc2)n(C)c2cc(Br)c(OC(C)=O)cc12 | -5 | -9
Cc1noc(C)c1CC(=O)N1CCCC(CCC(=O)N2CCN(c3ccccn3)CC2)C1 (stereo not drawn) | 21 | 5
Cn1c(O)c(N=NC(=O)c2cccc(Cl)c2)c2ccccc21 | -6 | -10
COc1ccc(-c2nc3ccccn3c2NC(=O)c2cc(C(F)(F)F)cc(C(F)(F)F)c2)cc1 | -2 | 5
O=C(NCc1ccccc1CS(=O)(=O)N1CCOCC1)c1cc(F)cc(F)c1 | -1 | 4
CC(C)Cc1nc(-c2cccc(CN3CCN(C(=O)c4cccc(OC(F)F)c4)CC3)c2)no1 | 2 | -1
CCc1ccc(CN2CCCC(CO)(Cc3cccc(OC)c3)C2)o1 (stereo not drawn) | 3&-1 | 2&8
CCOc1ccc(OCCSc2nc3ccccc3n2CCOc2ccccc2F)cc1 | -1 | 0
CCC(C)N1C(=O)c2ccccc2NC1c1ccc(C(=O)O)cc1 (stereo not drawn) | -10 | -12
COc1cn(CC(=O)N2CCc3ccccc32)c(CSc2nnnn2C)cc1=O | -4 | -9
O=C(c1cccs1)N(Cc1c(-c2ccc(F)cc2)noc1N1CCOCC1)CC1CCCO1 (stereo not drawn) | 5 | 7
CC/C=C(/C)C(=O)NCC(=O)N1CCCC1 | 1 | -3
CCCCNC(=O)N1CC(C(=O)NCCc2ccc(OC)cc2)CCC1c1ccc(F)c(C)c1 (stereo not drawn) | 4 | 2
COc1ccccc1C1SCC(=O)N(CC(=O)NCc2ccncc2)c2c1c(-c1ccccc1)nn2-c1ccc(C)cc1 (stereo not drawn) | 15 | 18
O=C(c1cccc(F)c1)N1CCN(C(C(=O)N2CCSCC2)C2CCCC2)CC1 (stereo not drawn) | 2 | 20
CC(C)c1cccc(Oc2cnn(-c3ccccc3)c(=O)c2Nc2cccc(C(=O)NCC3CCCO3)c2)c1 (stereo not drawn) | 2 | 8
Cc1ccccc1COC(=O)c1ccc(CNC(=O)NC(C)C)cc1 | 5 | 3
COc1cn(CC(=O)NCc2ccc(F)cc2)c(CN2CCN(c3ccccc3)CC2)cc1=O | -1 | -3
COc1c(C)cc(C(=O)C2CCCN(Cc3csc(C(C)=O)c3)C2)cc1C (stereo not drawn) | -2 | -2
CCCC(=O)C1=C(c2ccc(C)c(C)c2)N(C(=O)CCC)n2c(CC)nnc2S1 | 7 | 3
CCCc1cnc(Nc2nc(C(N)Cc3ccc(C(F)(F)F)cc3)cs2)nc1 (stereo not drawn) | -5 | -13
CCCCCc1ccc(NC(=O)CCN2CCSC2=O)cc1 | 0 | -2
CCCn1c(=O)[nH]c(=O)c2cc(C(=O)OCC3COc4ccccc4O3)cnc21 (stereo not drawn) | -1 | -5
CCN(Cc1ccncc1)Cc1ccc(Sc2ncccn2)o1 | 0 | -1
O=C(Nc1cc(F)cc(F)c1)N[C@@H](Cc1ccccc1)C(=O)N1CCC(C(=O)N2CCOCC2)CC1 | 0 | 3

2 entries picked at random from those above:
SMILES | NPYLR7 agonist | NPYLR7 agonist max-min
COc1cn(CC(=O)NCc2ccc(F)cc2)c(CN2CCN(c3ccccc3)CC2)cc1=O | -1 | -3
CC/C=C(/C)C(=O)NCC(=O)N1CCCC1 | 1 | -3

(more compounds)
SMILES | NPYLR7 agonist | NPYLR7 agonist max-min
COc1ccc(CSc2nc3cc(S(=O)(=O)N4CCCC4)ccc3n2CC2CC2)cc1C | 7 | 0
Cn1ncc2c(N3CCN(c4ccc([N+](=O)[O-])cc4)CC3)ncnc21 | 2 | 0
Cc1ccccc1-n1cc(CN2CCN(c3ncc(C)c(N)n3)CC2)cn1 | -1 | -2
c1ccc(C2=NN(c3ccccc3)C(c3ccccc3)C2)cc1 (stereo not drawn) | -9 | -11
O=C(Nc1ccc(-c2ccco2)cc1)C1CCCN(Cc2ccsc2)C1 (stereo not drawn) | 9 | 7
Cc1cccc2c(N=NC(=O)COc3ccc(Cl)cc3Cl)c(O)[nH]c12 | 0 | -3
Oc1[nH]c2ccccc2c1C1=NCCC1 | 2 | 35
CCOc1ccccc1-n1c(=O)[nH]c2c(C(N)=O)nc(-c3cccnc3)nc21 | 13 | 3
Cc1ccc(OCC(=O)Nc2ccc3c(c2)OCO3)c(Br)c1 | 15 | 5
COc1ccc(N2C(=O)CSC2c2ccc(NC(=O)CCc3ccccc3)cc2)cc1 (stereo not drawn) | 0 | 17
COc1ccc(Br)cc1S(=O)(=O)Nc1ccc2c(c1)CCC2 | 6 | 5
O=c1c2cnc(N3CCOCC3)nc2ccn1-c1ccccc1F | 4 | -1
O=C(Nc1ccc(OCC(F)(F)F)nc1)N1CCCCCCC1 | -1 | -2
CC1=NN(CC(=O)c2ccc(Cl)cc2)c2nc3c(c(=O)n(C)c(=O)n3C)n2C1C (stereo not drawn) | 0 | -2
O=C(Nc1cccc2ccccc12)N(Cc1cccs1)C1CC1 | -2 | 0
O=C(Cn1cnc2ccc(Br)cc2c1=O)NC1CCCCC1 | 6 | -1
C=CCN1C[C@@H]2C[C@@H](C(=O)OCC)N(C(=O)c3ccc(F)cc3)c3cccc(c32)C1=O | -3 | 12
CCc1nc2n(n1)C(=O)C(C(c1ccc([N+](=O)[O-])cc1)N1CCC3(CC1)OCCO3)S2 (stereo not drawn) | 0 | -6
Cc1cc(C(=O)NC2CC(=O)N(Cc3ccccc3Cl)C2)nc(C)n1 (stereo not drawn) | 16 | 7
Cc1ccccc1COc1cn(CC(N)=O)c(C)cc1=O | 1 | -2
Cc1ccc2nc(N(CCN3CCOCC3)C(=O)c3ccno3)sc2c1 | 1 | 22
COc1cn(CC(=O)Nc2ccc(OC(F)(F)F)cc2)c(CSc2nccc(C)n2)cc1=O | -1 | -6
COc1ccc(C2=NOC(CN(Cc3cccc(C(F)(F)F)c3)C(=O)C3CCCC3)C2)cc1OC (stereo not drawn) | -1 | 1
O=C(Nc1ccc(N2CCCCS2(=O)=O)cc1)c1cccc([N+](=O)[O-])c1 | 5 | 5
O=C1c2cccnc2C(=O)N1c1ccc(F)cc1 | -1 | -1
CCc1ccc2nc(N(CCCn3ccnc3)C(=O)c3cccs3)sc2c1 | -9 | -15
CCCn1c(=O)c2c(nc3n2CCN3c2ccc(OCC)cc2)n(C)c1=O | -4 | -6
CCN(CC)C(=NS(=O)(=O)c1ccccc1)c1ccc(Cl)cc1 | -4 | -13
C=CCn1nc(C(=O)N2CCCCC2)c2c1CCC(NCC1(N3CCCCC3)CCCC1)C2 (stereo not drawn) | 7 | -2
Cc1ccc(C)c(CSc2nc(=O)n3ccccc3n2)c1 | 12 | 11
CCCCN(CC(=O)N1c2ccccc2-n2cccc2C1c1cc(OC)ccc1OC)C(=O)c1ccc([N+](=O)[O-])cc1 (stereo not drawn) | 16 | 12
O=C(C1CC2C=CC1C2)N(Cc1cccnc1)Cc1ccco1 (stereo not drawn) | -1 | -1
COc1ccc(C=NOCc2nnc(-c3ccc(F)cc3)o2)cc1 | 7 | 8
COc1ccc(CNC(=O)CCC2CCCN(C(=O)c3cccc(Cl)c3)C2)c(OC)c1 (stereo not drawn) | 5 | 6
Cc1ccc2nc(-c3ccc(O)c(Cl)c3)oc2c1 | -3 | -8
CSCC(=O)N1CCCC(CNC(=O)c2ccccc2Cl)C1 (stereo not drawn) | -6 | -9
CCOC(=O)C1CCN(C(=O)c2coc(CN(Cc3cccc(F)c3)Cc3ccc4c(c3)OCO4)n2)CC1 | 16 | 18
CCCCNC(=O)c1ccc(C)c(OCC)c1 | -7 | -8
COc1ccc(-c2c[nH]c(=S)n2-c2ccc(Cl)cc2)cc1 | -12 | -16
CCSc1ccc(C(=O)NCCC(=O)Nc2ccncc2)cn1 | -3 | -5
Cc1cc2n(n1)CC(CNCC1CCN(Cc3ccccc3)CC1)CN2 (stereo not drawn) | 4 | 0
CCc1cccc2c(C(CC(=O)NCCCN3CCOCC3)c3ccc4c(c3)OCO4)c[nH]c12 (stereo not drawn) | 5 | 12
CCOC(=O)Cn1c(-c2cccc(N3C(=O)c4ccccc4C3=O)c2)csc1=Nc1ccccc1 | -5 | -7
COCCN(Cc1csc(COc2cc(C)cc(C)c2C)n1)C(=O)C1CC1 | 15 | 19
N#Cc1c(Cl)cccc1Oc1ccc(S(=O)(=O)N2CCOCC2)cc1 | 4 | 6
COc1ccc(CNc2ccc([N+](=O)[O-])cc2)cc1 | -4 | -9
Cc1ccc(OCCS(=O)(=O)N2CCc3c(nc(C)[nH]c3=O)C2)cc1 | 9 | 7

Compound activity deposited in PubChem by Fisher Drug Discovery Resource Center.
